Menin-MLL FL inh = displaces fluorescein MLL peptide from human menin. 290,000 tested, under 10 active. FP activity change, % at 61.4 µM. Fluorescence polarization, fluorescein-MLL peptide displacement from menin; inconclusive = falling polarisation curve, or a change in total fluorescence; inactive = total fluorescence flat and polarisation flat or rising; no compound was filed as active; the % refers to the polarisation; negative = inhibition;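 further: % of control where 0% means no effect; inhibitors lower the polarisation; unlabelled MLL peptide was the positive control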
gsp agonist = activates gsp, the McCune-Albright syndrome mutation; AID 624287; gsp mutant cells, cAMP HTRF, 30 min; control for the full effect not named in the record; 0.13% of 340,000 active; Potency, µM (series often up to 76.9 µM), for inactives: at the highest dose activation (cAMP increase), most hits filed as activators; active = well fitted activation curve with a large enough effect; inconclusive = small, poorly fitted or top-dose-only effect, or another doubt; inactive = no such curve, though single readings can be large or run the other way; cell line not stated here;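 further: phosphodiesterase inhibitor Ro 20-1724 added with compounds to block cAMP breakdown; potency means the concentration at half of the fitted maximal effect; nearly all actives have a fitted effect of over 60% in size; about a fifth of the inactives were tested at one dose only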
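Cells in DMEM/10% FBS with G418 were pretreated with compounds in DMSO plus […] (300 uM stock) for 30 min at 37C. cAMP was measured by HTRF (cAMP-d2 plus anti-cAMP antibody-K) after 30 min at room temperature.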
CtBP-E1A inh = CtBP/E1A binding inhibition; AlphaScreen GST-E1A/His-CtBP binding, 1536-well; stronger effect = lower value; control for the full effect not named in the record; activity change, % (concentration not given with the values); 0.49% of 340,000 active; AID 651724; in the data active means activity change below about -65%; inconclusive means about -30% to -65%; inactive means above about -30%; further: on the % scale 0 is the no-effect control and ±100 the full control effect
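GST-E1A and His-tagged CtBP (125 nM each as 5X stock) were preincubated with pin-transferred compound for 2 h at 37 °C in the dark, then glutathione donor and nickel acceptor beads were added for 1 h before AlphaScreen reading.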
Sfp PPTase inh = inhibitors of Bacillus subtilis Sfp phosphopantetheinyl transferase. Q9F4F7. Biochemical Sfp PPTase activity, qHTS. Potency, µM, inactives show max response, negative = inhibition, actives largely listed as inhibitors. 3.5% of 310,000 active. AID 1490; active means well fitted inhibition curve with a large enough effect; inconclusive means small, poorly fitted or top-dose-only effect, or another doubt; inactive means no such curve, though single readings can be large or run the other way;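 further: the enzyme is Sfp with the accession as filed and its product quenches rhodamine fluorescence; potency means the concentration at half of the fitted maximal effect; 0% = enzyme reaction without inhibitor and -100% = no enzyme wells; top concentration of the series not given in the record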
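Fluorescence-quenching assay with 15 nM Sfp, 5 uM rhodamine-CoA and 12.5 uM BHQ-2-labelled ybbR peptide in pH 7.6 Hepes/MgCl2 buffer. Enzyme was pre-incubated with compound for 15 min at room temperature. Rate was taken from the 30-min fluorescence change (525/598 nm).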
TRPV1 PAM = potentiators of human vanilloid receptor 1 (TRPV1) | Q8NER1 | TRPV1-expressing cells, Fluo-8 calcium influx, capsaicin EC20 potentiation; host cell line not named in the record; control for the full effect not named in the record | potentiation, % at 8.33 µM | 0.02% of 320,000 active | AID 540277; active means potentiation above 80%; inconclusive means 30% to 80%; inactive means below 30%; further: 0% is about no effect
Target sequence (Q8NER1 whole entry, looked up): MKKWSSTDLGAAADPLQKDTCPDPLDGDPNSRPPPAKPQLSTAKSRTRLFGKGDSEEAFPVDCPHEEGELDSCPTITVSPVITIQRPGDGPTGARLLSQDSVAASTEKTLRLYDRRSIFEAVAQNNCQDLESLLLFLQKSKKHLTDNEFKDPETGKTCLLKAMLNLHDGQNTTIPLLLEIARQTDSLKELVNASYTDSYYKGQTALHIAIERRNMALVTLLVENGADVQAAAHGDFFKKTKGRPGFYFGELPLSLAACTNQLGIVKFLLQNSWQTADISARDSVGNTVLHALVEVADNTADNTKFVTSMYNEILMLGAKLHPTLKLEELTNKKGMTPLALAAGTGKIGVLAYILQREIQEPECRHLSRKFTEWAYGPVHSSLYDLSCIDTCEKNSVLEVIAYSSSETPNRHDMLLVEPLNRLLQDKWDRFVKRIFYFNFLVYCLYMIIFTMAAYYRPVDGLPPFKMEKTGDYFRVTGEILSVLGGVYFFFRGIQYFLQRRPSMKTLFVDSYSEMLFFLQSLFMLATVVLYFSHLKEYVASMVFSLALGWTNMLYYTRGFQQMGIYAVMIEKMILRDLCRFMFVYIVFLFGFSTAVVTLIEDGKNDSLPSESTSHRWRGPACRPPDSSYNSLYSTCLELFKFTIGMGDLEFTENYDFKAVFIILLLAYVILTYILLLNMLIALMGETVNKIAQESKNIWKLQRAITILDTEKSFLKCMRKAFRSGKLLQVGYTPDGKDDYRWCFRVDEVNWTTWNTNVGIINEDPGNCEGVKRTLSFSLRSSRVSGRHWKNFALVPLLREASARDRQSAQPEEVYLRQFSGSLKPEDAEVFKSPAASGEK
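Cells expressing TRPV1 were dye-loaded with Fluo-8 and read kinetically: 10 s baseline, 3 min after compound (agonist portion), then 2 min after EC20 capsaicin (allosteric enhancer portion). Calcium-bound dye fluorescence at 480/520 nm.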
ClpP mod = qHTS Assay for Activators of ClpP; purified B. subtilis ClpP, FRET peptide cleavage, 20 min; Potency, µM (titrated, usually from 57.5 µM), inactives show at the highest dose activity change, negative = active; 1.9% of 340,000 active; active = well fitted falling curve with a large enough effect; inconclusive = small, poorly fitted or top-dose-only effect; inactive = no such curve, though single readings can be large or run the other way; further: potency means the concentration at half of the fitted maximal effect; the source files actives as falling curves though it sought activators and does not explain the sign; nearly all actives have a fitted effect of over 65% in size; many hits overshoot -100%
Target sequence (P80244 whole entry, looked up): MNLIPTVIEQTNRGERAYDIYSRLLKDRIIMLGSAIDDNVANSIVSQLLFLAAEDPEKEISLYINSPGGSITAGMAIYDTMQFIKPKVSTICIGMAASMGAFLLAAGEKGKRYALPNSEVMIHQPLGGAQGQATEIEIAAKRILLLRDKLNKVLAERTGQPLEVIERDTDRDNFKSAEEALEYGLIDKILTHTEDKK
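FRET quenching reversal measured ClpP activation: 10 microg/mL B. subtilis ClpP at pH 8 with the FRET-FV decapeptide, read at 430 nm after 320 nm excitation. The 20-min minus 0-min signal was scaled between DMSO/no-enzyme wells and ADEP (5.8 microM final).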
gsp antagonist = antagonists of gsp mutant (McCune-Albright syndrome). Potency, µM (doses to about 76.9 µM), for inactives: at the highest dose activity change, negative = inhibition, usual class: inhibitors. gsp-mutant cells, cAMP HTRF, 30 min; control for the full effect not named in the record. AID 624288. 0.4% of 340,000 active; active = falling curve of any shape with a large fitted effect; inconclusive = falling curve, mostly with a smaller effect; inactive = flat or rising curve; cell line not stated here;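 further: intracellular cAMP measured with PDE inhibitor Ro 20-1724 present during compound exposure; potency means the concentration at half of the fitted maximal effect; on the % scale 0 is the no-effect control and ±100 the full control effect; nearly all actives have a fitted effect of over 65% in size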
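HTRF cAMP measurement after 30 min RT detection following 30 min, 37C compound treatment alongside […] (added as 300 uM solution) in G418-selected cells seeded at 2000/well and grown 16–24 h.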
* marks the source's active call; other numbers are inactive results; i = inactive; ? = inconclusive; nt = not tested or not shown; & = joins results of further samples; [ ] = dose if it differs, or a comment.

The line under a structure holds: Menin-MLL FL inh	gsp agonist	CtBP-E1A inh	Sfp PPTase inh	TRPV1 PAM	ClpP mod	gsp antagonist
C=CCn1c(CCC(O)CCCCC)n[nH]c1=S (stereo not given)
→ nt	-31%	8	-7%	-12	0.7%	13%
CC(C)N(C(=O)Cn1cnc2c(cnn2-c2ccccc2Cl)c1=O)C(C)C
→ 0.1	-44%[inhibitor]	3	10%	-1	-3.2%	11%
Cc1ccccc1NC(=O)Cn1c(C)nc2ccc(NC(=O)C3CC3)cc2c1=O
→ -1.0	4%	6	-6%	?	-13%	10%
O=[N+]([O-])c1ccc(N=Nc2c(Cl)cc(O)cc2Cl)cc1
→ 2.7	-26%	nt	5%	-30	-1.5%	16µM*
CCCCN(C(=O)C1CC(=O)N(Cc2ccc(C)cc2)C1)c1c(N)n(CC(C)C)c(=O)[nH]c1=O (stereo not given)
→ nt	7%[15.4 µM]	3	14%	2	1.6%	15%
COc1ccccc1Nc1ncnc2sccc12
→ 0.1	?	-3	9%	11	-3.1%	1%
COc1ccccc1NC1C=CS(=O)(=O)C1 (stereo not given)
→ 1.4	-8%	1	4%	3	1.0%	16%
COc1cc(/C=N/NC(=S)NC2CC3CC2C2C=CCC32)ccc1O (stereo not given)
→ 2.9	10%[15.4 µM]	-12	24%	-15	nt	3%
Cc1ccccc1-c1cc(C(=O)NCc2ccco2)n(CC2CC(c3cccnc3)=NO2)n1 (stereo not given)
→ nt	nt	0	nt	16	-3.2%	-7%
COc1ccccc1N1CCN(C(=O)c2ccc(CN3CCOCC3)cc2)CC1
→ -0.7	4%	nt	24%	1	-2.0%	-3%
COc1cccc(CNC(=O)C2CCCN(C(=O)c3ccc(Cl)cc3)C2)c1 (stereo not given)
→ nt	-21%	3	nt	-23	-1.3%	2%
O=CN1c2ccccc2CSc2ccccc21
→ nt	-3%	nt	nt	nt	1.2%	0%
Cc1cc(-c2n[nH]c(=S)n2/N=C/C=C/c2ccccc2)n[nH]1
→ 4.2	-32%[inhibitor]	5	-15%	4	-9.4%	-13%
COc1cc(OC)c(OC)cc1/C=C1\SC(N2CCCCC2)=NC1=O
→ ?	3%	-26	1%	-1	-2.2%	3%
CC1=C(C(=O)N2CCOCC2)C(c2ccc(C)cc2)NC(=S)N1 (stereo not given)
→ 6.8	37%	1	50µM*	-14	nt	0%
COc1ccc(S(=O)(=O)NCC(=O)NCc2cc(=O)n(C)c(=O)n2C)cc1
→ 0.2	30%	0	13%	0	-1.7%	-11%
Cc1c(C)n2c(SCC(=O)N3CC(C)OC(C)C3)nnc2[nH]c1=O (stereo not given)
→ nt	19%[15.4 µM]	9	nt	3	nt	17%
O=C(c1cccc(S(=O)(=O)NCc2ccccc2)c1)N1CCCC(C(F)(F)F)C1 (stereo not given)
→ nt	9%[15.4 µM]	6	nt	2	nt	-5%
CCc1c(C(C)O)oc2ccc3c(C)cc(=O)oc3c12 (stereo not given)
→ 0.3	nt	nt	14%	-19	nt	nt
O=C(COC(=O)c1ccc(Cl)c(S(=O)(=O)N2CCCCC2)c1)NC1CCCCC1
→ nt	24%	-3	nt	nt	-0.8%	nt
Cc1ccc(S(=O)(=O)N/N=C/c2ccc(OCC(=O)N3CCOCC3)cc2)cc1
→ -0.7	-7%[15.4 µM]	nt	4%	6	nt	-4%
CCOC(=O)c1c(C)c(C(=O)Nc2cc(F)ccc2F)c(C)n1C
→ 2.0	4%	2	22%	0	-2.4%	-2%
C[N+](C)(CC#Cc1ccccc1)CC(=O)c1ccc(Cl)cc1
→ 4.9	-5%	0	10%	-1	0.8%	4%
CCOC(=O)c1c(C)[nH]c(N=Nc2ccc(C)cc2)c1C
→ 0.8	11%	?	20µM*	-14	-1.8%	0%
COc1ccc(OC)c2[nH]c(=O)c(CCNC(=O)C(C)(C)C)cc12
→ -0.8	?	3	13%	15	-5.1%	2%
COc1cc(/C=N/n2cnc3scc(-c4cccs4)c3c2=O)cc(OC)c1OC
→ 1.5	-12%	5	5%	18	-2.3%	7%
O=C(COc1ccc2ccccc2c1)NCC1CCCO1 (stereo not given)
→ 6.3	-19%	18	7%	-10	nt	17%
O=C(c1ccccc1)c1ccc(OCC(O)CN2CCCC2)cc1 (stereo not given)
→ 0.5	-5%[15.4 µM]	-14	-28%	19	nt	5%
Cc1ccc(/C=N/N2CCN(Cc3ccc(C)cc3)CC2)cc1
→ -4.5	-29%	-18	4%	11	nt	0%
CCc1ccc(NC(=O)NNC(=O)c2ccc3ccccc3c2O)cc1
→ 2.3	3%	-1	15%	19	?	1%
CCOC(=O)c1cc(-c2ccc(N3CCOCC3)cc2)nn1-c1ccccc1C(=O)O
→ 1.6	8%	-22	0%	14	nt	11%
C/C(=N\NC(=O)CN1CCCCC1)c1ccccc1O
→ 2.7	2%[15.4 µM]	?	11%	-2	nt	11%
CC1CCCN(C(=O)c2ccc([N+](=O)[O-])o2)C1 (stereo not given)
→ 0.2	10%	-6	15%	3	2.3%	9%
O=C1CCCC2=C1C1O[C@](CCCCN3C(=O)c4ccccc4C3=O)(Cc3c1ccc1ccccc31)O2
→ -0.8[11.7 µM]	nt	nt	8%	i	nt	nt
NC(=O)CC[C@H](NC(=O)c1ccc(Cl)cc1)C(=O)NNC(=O)COc1cccc(Br)c1
→ nt	30%	-3	nt	nt	nt	4%
CCC(C)(C)NC(=O)CN(C(=O)CCC(=O)Nc1nccs1)c1ccc2c(c1)OCO2
→ 7.8	25%	0	11%	2	nt	0%
CC1(c2nnc(-c3ccc(F)cc3)o2)CC(c2cccc(Cl)c2)=NO1 (stereo not given)
→ 2.2	nt	-18	1%	-28	-3.5%	-4%
Cc1cc(-c2nc3ncccc3o2)ccc1NC(=S)NC(=O)c1ccco1
→ 3.6	-8%	3	-20%	1	nt	-18%
Cc1ccnc(NC(=O)C2CCN(S(=O)(=O)c3cccc4nonc34)CC2)c1
→ 0.4	9%	1	14%	-2	-1.3%	-2%
CCOc1ccc(OCC)c(NC(=O)CN2CCN(C(=O)c3ccco3)CC2)c1
→ 0.4	-28%	-1	13%	-6	0.5%	-19%
Cc1ccccc1N(C)S(=O)(=O)c1nnc(NC(=O)c2ccccc2F)s1
→ nt	?	-2	21%	6	-2.9%&-7.6%	?
CSCCC(NC(=O)c1ccco1)C(=O)NCCc1ccc(F)cc1 (stereo not given)
→ nt	27%	-12	nt	-12	-1.7%	8%
CCSC1=C(C#N)C(c2cccc(Br)c2)CC(=O)N1 (stereo not given)
→ 4.8	0%	3	-11%	15	-0.7%	-5%
CN(C)CCNc1cc(-c2ccncc2)nc2ccccc12
→ -3.7	-6%	-12	6%	21	nt	0%
O=[N+]([O-])c1cccc(-c2ccc(C(=S)N3CCN(c4ccc(F)cc4)CC3)o2)c1
→ 1.8	-9%[15.4 µM]	-25	-4%	22	-1.7%	10%
C=CCn1c(=O)/c(=C2/SC(C)=C(C)N2CC)s/c1=C1/C(=O)N(CC)C(=S)N1c1ccccc1
→ 20	-32%[inhibitor]	-2	-2%	-13	-2.4%	-2%
COc1ccc(S(=O)(=O)N2CCCC(C(=O)NCC3CCCO3)C2)cc1Cl (stereo not given)
→ nt	-8%	-7	10%	26	-0.3%	1%
Cc1ccc2nc(N(CCCN(C)C)C(=O)CS(=O)(=O)c3ccccc3)sc2c1
→ nt	3%	-1	nt	-3	-8.9%	6%
Cc1ccccc1NC(=O)c1ccc(C)c(S(=O)(=O)Nc2cccnc2)c1
→ nt	-10%[15.4 µM]	8	-11%	-1	1.5%	-14%
CC(C)N(C(=O)Cn1cc(S(=O)(=O)CC(=O)NC2CCCCC2)c2ccccc21)C(C)C
→ -1.6	18%	6	11%	18	1.6%	-17%
O=C1C=CC(=O)N1c1ccc(O)cc1
→ -1.5	-20%	-5	13µM*	-2	-0.1%	-10%
Cc1nc2nc(-c3ccccc3)nn2c(C)c1C
→ nt	5%	10	nt	nt	4.8%	1%
Oc1ccc(-n2nnnc2SCc2c(F)cccc2Cl)cc1
→ 1.7	?	-7	5%	-1	-1.0%	?
CCOc1ccc(CN(Cc2ccco2)C(c2cccs2)c2nnnn2C(C)(C)C)cc1 (stereo not given)
→ -0.2	-9%	-2	2%	13	0.9%	-6%
CN(CC(=O)Nc1ccccc1Cl)C(=O)COC(=O)C1=COCCO1
→ nt	-38%[inhibitor]	6	nt	-4	1.6%	1%
O=C(CCc1ccccc1)N/N=C\c1cc2c(cc1Br)OCO2
→ -3.5	-7%	0	-13%	-5	-3.8%	-24%
CC1CCC/C(=C\Nc2ccc(C(=O)O)cc2)C1=O (stereo not given)
→ 1.2	?	3	-6%	14	nt	-10%
O=C(Cn1nc(-c2ccccc2)ccc1=O)NCC1CCCO1 (stereo not given)
→ -1.1	0%	-5	6%	-11	-9.6%	11%
CN(C)c1ccc(-n2cc3c(=O)n(C)c(=O)n(C)c3c2)cc1
→ 2.4	?	-28	5%	-14	-16%	-23%
COc1ccc(C(=O)C(C)OC(=O)CCN2C(=O)C3CC=CCC3C2=O)cc1 (stereo not given)
→ nt	?	nt	nt	4	-1.6%	2%
COc1ccc(C2/C=C\CN(CC(C)C)CC(=O)N2Cc2cccc(F)c2)cc1 (stereo not given)
→ 9.4	nt	-5	?	nt	-3.9%	-8%

From PubChem

Rows are unselected; about 5.3% have a hit in one of these screens.
